# Six1-Eya2 blk: qHTS Assay for Inhibitors of the Six1/Eya2 Interaction; Homeobox protein SIX1 (Homo sapiens) + Protein phosphatase EYA2 (Homo sapiens), …; AlphaScreen GST-Six1/His-Eya2 binding, biochemical; active compounds read low; control for the full effect not named in the record; activity change, % (test concentration not listed); 360,000 tested, 0.56% active; in the data active = activity change below about -65%; inconclusive = about -30% to -65%; inactive = above about -30%; also: % is scaled to controls: 0 for no effect and ±100 for the full control effect
#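 Homogeneous AlphaScreen proximity assay pairing GST-Six1 with His-tagged Eya2 (added as 5X mix: 250 nM and 500 nM) in 50 mM Tris pH 8.0, 300 mM NaCl, 1 mM TCEP. Glutathione donor and nickel acceptor beads; 1 h, 37 °C, dark.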
# PINK1 expr mod: A Quantitative High throughput Screen to Identify Chemical Modulators of PINK1 Expression; 410,000 tested, 0.2% active; PINK1 immunofluorescence, high-content cytometry, 24 h; AID 624263, 2012; Potency, µM (series often up to 76.6 µM), for the others: at the highest dose activation (PINK1 increase), actives largely listed as activators; active = well fitted activation curve with a large enough effect; inconclusive = small, poorly fitted or top-dose-only effect; inactive = flat fitted curve, though single readings scatter; cell line not stated here;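 also: potency is read from the fitted curve at half-maximal effect; % of control where 0% means no effect; nearly all actives have a fitted effect of over 65% in size; a mitochondrial uncoupler was the plate control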
#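 Fluorescence from anti-PINK1 antibody, together with nuclear and cell stains, was scanned on a laser-scanning cytometer. Before staining, stable-line cells were incubated 24 hours with compounds at 5 concentrations; primary antibody 12 h at 10 degrees C.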
# TRPV1 potentiator: HTS Assay for Compounds that Act as Potentiators of the Vanilloid Receptor 1; Transient receptor potential cation channel subfamily V member 1 (Homo sapiens), Q8NER1; TRPV1-expressing cells, Fluo-8 calcium influx, capsaicin EC20 potentiation; host cell line not named in the record; control for the full effect not named in the record; potentiation, % at 8.33 µM; 320,000 tested, 0.02% active; AID 540277, 2011; active means potentiation above 80%; inconclusive means 30% to 80%; inactive means below 30%; also: 0% is about no effect
#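 TRPV1-expressing cells were cultured overnight at 35.5C and loaded with Fluo-8 calcium dye for 40 to 90 min at room temperature. After a 10 s baseline, compound was added and calcium influx was read kinetically for 3 min (ex 480/em 520 nm).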
# CtBP-E1A blk: qHTS Assay for Inhibitors of the CtBP/E1A Interaction. 340,000 tested, 0.49% active. CtBP / adenovirus E1A interaction (AlphaScreen). AlphaScreen GST-E1A/His-CtBP binding, 1536-well; active compounds read low; control for the full effect not named in the record. activity change, % (concentration not given with the values). AID 651724, 2012; in the data active means activity change below about -65%; inconclusive means about -30% to -65%; inactive means above about -30%; also: % is scaled to controls: 0 for no effect and ±100 for the full control effect
#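 Steps: dispense buffer (Tris pH 8.0, NaCl 300 mM, TCEP 1 mM, BSA, Tween 20); add 5X protein mix (GST-E1A, His-CtBP, 125 nM each); pin 23 nL compound; 2 h at 37 °C, dark; add 5X beads (50 ug/mL); 1 h; read.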
# Sfp inh: qHTS Assay for Inhibitors of Bacillus subtilis Sfp phosphopantetheinyl transferase (PPTase); 4'-phosphopantetheinyl transferase ffp (Bacillus subtilis), Q9F4F7; Biochemical Sfp PPTase activity, qHTS; Potency, µM, inactives show max response, negative = inhibition, hits mostly inhibitors; 310,000 tested, 3.5% active; AID 1490, 2009; active = well fitted inhibition curve with a large enough effect; inconclusive = small, poorly fitted or top-dose-only effect, or another doubt; inactive = no such curve, though single readings can be large or run the other way;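 also: the enzyme is Sfp with the accession as filed and its product quenches rhodamine fluorescence; potency is read from the fitted curve at half-maximal effect; 0% = enzyme reaction without inhibitor and -100% = no enzyme wells; top concentration of the series not given in the record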
#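 Sfp 15 nM + cpd, 15 min RT; start w/ rhodamine-CoA 5 uM, BHQ-2-YbbR 12.5 uM (final); 50 mM Hepes pH 7.6, 10 mM MgCl2, 0.01% NP-40, 0.01% BSA; read 525/598 nm at 0 and 30 min.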
# D2 ag: Beta-Arrestin HTS for Positive Allosteric Modulators of the Human D2 Dopamine Receptor: Agonists; D(2) dopamine receptor (Homo sapiens), P14416; DiscoveRx PathHunter D2 beta-arrestin, luminescence, 90 min; 100% = 57 uM dopamine signal; activation, % (no concentration beside the values); 360,000 tested, 0.084% active; in the data active = activation above about 40%; inconclusive = about 15% to 40%; inactive = below about 15%; also: compound concentration not given in the record; the text of the record calls up to 30% inactive
# Target sequence (P14416 whole entry, looked up): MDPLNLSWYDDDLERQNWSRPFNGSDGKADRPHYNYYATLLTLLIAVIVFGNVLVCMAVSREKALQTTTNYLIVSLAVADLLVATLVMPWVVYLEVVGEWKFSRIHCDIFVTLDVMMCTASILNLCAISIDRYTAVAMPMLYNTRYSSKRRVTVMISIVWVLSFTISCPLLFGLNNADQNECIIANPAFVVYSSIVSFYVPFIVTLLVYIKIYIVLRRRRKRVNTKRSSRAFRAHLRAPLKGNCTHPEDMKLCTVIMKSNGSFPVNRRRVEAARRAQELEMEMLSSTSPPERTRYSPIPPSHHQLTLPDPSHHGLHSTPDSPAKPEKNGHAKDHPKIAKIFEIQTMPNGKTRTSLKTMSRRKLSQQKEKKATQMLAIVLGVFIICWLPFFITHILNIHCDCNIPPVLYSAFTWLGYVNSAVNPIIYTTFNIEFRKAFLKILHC
#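 Agonist mode: compounds alone added to overnight-plated D2 PathHunter cells for 90 min at 37 C, with 57 uM final dopamine (EC100) defining full response. Beta-arrestin recruitment detected by chemiluminescent reagent, read after 1 h at ambient temperature.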
# D2 potentiator: Beta-Arrestin HTS for Positive Allosteric Modulators of the Human D2 Dopamine Receptor: Potentiators | DiscoveRx D2 beta-arrestin cells, luminescence, 90 min; 100% = 57 uM dopamine signal | D(2) dopamine receptor (Homo sapiens), P14416 | 360,000 tested, 0.23% active | AID 624464, 2012 | potentiation, % (concentration not given with the values); active = potentiation of 50% or more; inconclusive = 30% to 50%; inactive = 30% or less;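 also: compound concentration not given in the record; tested on top of an EC20 dose of dopamine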
#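 PathHunter beta-arrestin assay in DiscoveRx D2 cells. Compounds were added with an EC20 of dopamine (50 nM final) for 90 min at 37 deg C. Luminescence was read 1 h after detection reagent, with 57 uM dopamine as the EC100 control.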
# * hit, by the source's call; ? = inconclusive; · = no result given; & = joins results of further samples; [ ] = dose if it differs, or a comment.
SMILES,Six1-Eya2 blk,PINK1 expr mod,TRPV1 potentiator,CtBP-E1A blk,Sfp inh,D2 ag,D2 potentiator
CCNC(=O)C1CCCN(C(=O)c2cc(OC)c(OC)c(OC)c2)CC1 (stereo unspecified),14,1.7%,·,-15,·,-3.2,-4
C=CCN(c1ccccc1)S(=O)(=O)c1cccc(C(=O)Nc2nc3ccccc3[nH]2)c1,-11,0.7%,-1,-11,28%,-3.6,5
CN1Cc2c(N3CCOCC3)nc3sc(C(=O)c4ccc(Br)cc4)c(N)c3c2CC1(C)C,-16,-2.7%,4,-10,45µM*,2.9,-6
CC1COc2ccccc2N1C(=O)c1ccc(Cl)nc1 (stereo unspecified),-14,-3.3%,-1,-23,-5%,-4.2,0
COc1ccccc1N1C(=O)C2C3C=CC(C3)C2C1=O (stereo unspecified),12,-1.3%,0,2,15%,-0.1,-9
C/C(N)=C(/C#N)C(=O)COc1ncnc2ccc(Br)cc12,-6,2.0%,12,-6,27%,-3.2,-7
COCc1cc(=O)[nH]c(/N=C(\N)Nc2cccc(Cl)c2)n1,-2,2.4%,?,·,?,2.6,-1
CCc1ccccc1NC(=O)CN(C)C(=O)c1cc(C2CC2)nn1-c1ccccc1,1,-0.5%,0,-5,·,-3.0,0
CCNC(=O)NCCNC(=O)c1cc(OCC(F)(F)F)ccc1OCC(F)(F)F,4,2.4%,10,2,-2%,1.1,-1
CSc1nc(NCC(C)C)nc(N2CCOCC2)n1,4,4.0%[38.3 µM],-9,4,25%,2.4,1
Cc1ccc(C(=O)Nc2cccnc2)cc1S(=O)(=O)N1CCCCCC1,-8,1.2%,7,0,8%,-4.5,-8
CC[C@H](C)[C@H]1CNC(=S)N1CC1CCN(CCC(C)C)CC1,7,-0.7%,·,-8,·,-0.3,-7
O=S(=O)(O)c1ccc(N2N=C(c3ccccc3)CC2c2ccccc2)cc1 (stereo unspecified),14,0.4%,-15,16,?,1.0,-2
Cc1ccnc2nc(C(=O)NCc3ccccc3)nn12,8,1.4%,9,-5,15%,-2.0,10
CCCOc1ccccc1N/C(N)=N/c1nc(C)cc(C)n1,-14,2.2%,4,-7,18%,0.0,-10
CCOC(=O)C1CCCN(C(=O)C2CCN(S(=O)(=O)c3ccc4ccccc4c3)CC2)C1 (stereo unspecified),-1,-2.4%,11,6,8%,-2.1,-17
COc1cc(NC(=O)c2cc(Br)cc(C)c2OC)ccc1NC(=O)C(C)C,6,-1.3%,6,-16,12%,0.3,-2
COc1ccc(OC)c(CC(=O)N2CCc3cc(OC)c(OC)cc3C2)c1,2,0.2%,-16,-21,-2%,-3.0,-8
Cc1cc(C)nc(NNS(=O)(=O)c2ccc(F)c(Cl)c2)n1,-2,17%,2,0,·,-11,-26
Cc1ccc(-n2nc3c(=O)n(CCCC(=O)N4CCC(C(N)=O)CC4)nc(C)c3c2C)cc1,0,1.7%,-4,·,20%,14,3
Cc1ccc(S(=O)(=O)N2CCN(CC(=O)Nc3ccccc3Cl)CC2)cc1,-1,7.7%,16,10,·,-1.9,-1
Cc1ccc(S(=O)(=O)/N=C(/NC(=S)Nc2c(C)n(C)n(-c3ccccc3)c2=O)c2ccccc2)cc1,3,-1.4%,11,8,?,0.1,1
CC(C)C(NC(=O)C1CCCCC1)C(=O)NCc1ccccn1 (stereo unspecified),8,1.6%,8,5,17%,-4.0,8
O=C(COC(=O)c1c2c(nc3ccccc13)/C(=C\c1ccco1)CC2)NC1CCCC1,-9,2.3%,·,9,·,6.0,-11
COc1ccc2[nH]c(=O)c(C(c3nnnn3CC3CCCO3)N3CCc4ccccc4C3)cc2c1 (stereo unspecified),0,-0.8%[38.3 µM],3,-8,4%,-0.7,2
COc1ccc(C(=O)NC(=S)Nc2ccc(S(=O)(=O)Nc3cc(OC)nc(OC)n3)cc2)cc1,-24,1.4%,6,-29,-6%,-4.3,-7
Cc1ccccc1-c1cc(C(=O)n2cccn2)c2cc(Cl)ccc2n1,1,?,4,5,-3%,-1.4,-9
CC(=O)c1cccc(N(C(=O)Cn2nnc3ccccc32)C(C(=O)NCc2ccccc2)c2ccccn2)c1 (stereo unspecified),-4,0.5%,3,2,7%,-0.7,-9
COC(=O)CCC(=O)OC1(C)C(=O)C=C2C=C(C3CC3)N(CCCOC(C)C)C=C2C1=O (stereo unspecified),8,-0.3%,-38,?,9%&-14%,0.7,1
Cc1occc1-c1nnc(SCC(=O)NCc2ccc3c(c2)OCO3)n1CC(C)C,-2,0.4%,-2,4,-3%,-1.4,-11
CCOc1ccc2[nH]c(=O)c(C(c3nnnn3Cc3ccco3)N3CCN(C)CC3)cc2c1 (stereo unspecified),-1,-0.3%,9,-7,13%,0.3,-8
NC1=NN(c2c(Cl)cc(Cl)cc2Cl)C(=O)C1,-15,-1.7%,·,-29,·,2.0,-6
O=C(NNS(=O)(=O)c1ccc(CCCl)cc1)C(O)(c1ccccc1)c1ccccc1,-1,0.6%,-16,5,19%,-7.7,-6
COc1ccccc1OCc1ccc(C(=O)N(C)c2ccccc2)o1,2,0.8%,-9,·,9%,4.0,-7
Cc1cc(NC(=O)CCN2C(=O)C3C4CCC(C4)C3C2=O)cc(C)c1Br (stereo unspecified),2,0.4%,12,0,-25%,-2.9,-7
CCC(C)c1c(NS(=O)(=O)c2ccc(C)cc2)o[nH]c1=O (stereo unspecified),1,-0.4%,·,6,·,11,0

# Part of the list above in another layout.
> Cc1ccccc1-c1cc(C(=O)n2cccn2)c2cc(Cl)ccc2n1
- Six1-Eya2 blk: 1
- PINK1 expr mod: ?
- TRPV1 potentiator: 4
- CtBP-E1A blk: 5
- Sfp inh: -3%
- D2 ag: -1.4
- D2 potentiator: -9

> CC(=O)c1cccc(N(C(=O)Cn2nnc3ccccc32)C(C(=O)NCc2ccccc2)c2ccccn2)c1 (stereo unspecified)
- Six1-Eya2 blk: -4
- PINK1 expr mod: 0.5%
- TRPV1 potentiator: 3
- CtBP-E1A blk: 2
- Sfp inh: 7%
- D2 ag: -0.7
- D2 potentiator: -9

> COC(=O)CCC(=O)OC1(C)C(=O)C=C2C=C(C3CC3)N(CCCOC(C)C)C=C2C1=O (stereo unspecified)
- Six1-Eya2 blk: 8
- PINK1 expr mod: -0.3%
- TRPV1 potentiator: -38
- CtBP-E1A blk: ?
- Sfp inh: 9%&-14%
- D2 ag: 0.7
- D2 potentiator: 1

> Cc1occc1-c1nnc(SCC(=O)NCc2ccc3c(c2)OCO3)n1CC(C)C
- Six1-Eya2 blk: -2
- PINK1 expr mod: 0.4%
- TRPV1 potentiator: -2
- CtBP-E1A blk: 4
- Sfp inh: -3%
- D2 ag: -1.4
- D2 potentiator: -11

# Next records:
SMILES,Six1-Eya2 blk,PINK1 expr mod,TRPV1 potentiator,CtBP-E1A blk,Sfp inh,D2 ag,D2 potentiator
CCO[C@@H]1OC(C(=O)NCc2ccccc2)=C[C@H](C2CCCCC2)[C@H]1CCCO,3,1.5%,-4,-15,-10%,2.9,-9
O=C(NCCc1nnc2ccc(NCc3cccnc3)nn12)c1ccccc1F,5,0.3%,19,8,14%,-2.9,-2
Cc1cccc(CCNC(=O)c2cccc(NC3=NC4CS(=O)(=O)CC4S3)c2)c1 (stereo unspecified),11,-0.5%,20,1,13%,-4.1,-7
COCc1ccc(C(=O)N2CCCC(C(=O)c3ccc(Cl)cc3C)C2)o1 (stereo unspecified),3,-1.0%,-24,-14,-5%,-1.3,-8
COc1ccc(Oc2coc3cc(OC(=O)c4cncc(Br)c4)ccc3c2=O)cc1,10,-0.6%,7,2,10%,-3.5,-5
Cc1ccc(CN=C(N)Nc2nc(C)cc(C)n2)cc1,-27,2.0%,3,-2,19%,-6.4,-36
OC(COc1ccccc1)CN(Cc1ccccc1)CC(O)COc1ccccc1 (stereo unspecified),-4,5.5%,29,6,·,0.9,-18
CNc1ccccc1,0,1.3%,-3,-3,·,-4.6,-7
CC(=O)/C(C#N)=C1\NC(=O)C(Cc2cc(Cl)ccc2Cl)S1 (stereo unspecified),-1,4.1%,7,·,?,-3.5,-20
O=C(NCc1ccccc1F)Nc1nnc([C@@H]2C[C@H](O)[C@@H](CO)O2)s1,2,2.9%,·,5,·,-2.5,-4
O=C(NC1CCc2ccccc21)C1CCN(S(=O)(=O)c2ccc(Cl)cc2)CC1 (stereo unspecified),4,0.9%,-4,1,4%,0.6,-7
Fc1ccc(N2CCN(c3ncnc4c3nnn4Cc3ccccc3Cl)CC2)cc1,3,1.5%,·,0,·,-1.0,15
Cc1ccc(C)c(NC(=O)C2CCCN2C(=O)OC(C)(C)C)c1 (stereo unspecified),-2,-0.7%,-10,3,14%,2.5,-2
CCN1CCCC1CNC(=O)c1cc(NC(C)=O)c(N(C)C)cc1OC (stereo unspecified),4,-3.3%,1,11,6%,-1.2,-18
COc1cccc(Cn2cnc(-c3ccccc3OC)c2-c2cccnc2)c1,1,0.2%,·,-3,·,·,·
CCCNC(=O)C1(C)CCN(C(=O)c2cc(C)nn2C(C)(C)C)C1 (stereo unspecified),10,2.6%,·,-9,·,10,-1
COc1cc(CNC2CCCCCC2)cc(OC)c1OC,1,?,2,5,-13%,-2.9,-13
CC(C)C1CC(O)(C2(O)CCCCC2)ON1 (stereo unspecified),-1,1.1%,-3,3,15%,-1.1,-3
COc1ccc(C2C(C(C)=O)=C(O)C(=O)N2CCO)c(OC)c1 (stereo unspecified),2,1.5%,-7,-2,-22%,-10,-2
